Source: PubChem BioAssay
Rango-impB inh = qHTS Assay for Inhibitors of Rango (Ran-regulated importin-beta cargo) - Importin beta complex formation. AID 540263, 2011. 340,000 tested, 0.031% active. Potency, µM (titrated, usually from 92.2 µM), for inactives: top-dose inhibition of complex formation. Rango CFP/YFP FRET sensor + importin beta, 45 min; active = rising FRET ratio curve, often small or poorly fitted; inconclusive = mostly compound fluorescence or quenching in the first reads; inactive = flat curves in all reads;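 further: potency means the concentration at half of the fitted maximal effect; 0% = DMSO wells and 100% = buffer wells lacking importin beta; nearly all actives have a fitted effect of over 15% in size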
Target sequence (Q14974 whole entry, looked up): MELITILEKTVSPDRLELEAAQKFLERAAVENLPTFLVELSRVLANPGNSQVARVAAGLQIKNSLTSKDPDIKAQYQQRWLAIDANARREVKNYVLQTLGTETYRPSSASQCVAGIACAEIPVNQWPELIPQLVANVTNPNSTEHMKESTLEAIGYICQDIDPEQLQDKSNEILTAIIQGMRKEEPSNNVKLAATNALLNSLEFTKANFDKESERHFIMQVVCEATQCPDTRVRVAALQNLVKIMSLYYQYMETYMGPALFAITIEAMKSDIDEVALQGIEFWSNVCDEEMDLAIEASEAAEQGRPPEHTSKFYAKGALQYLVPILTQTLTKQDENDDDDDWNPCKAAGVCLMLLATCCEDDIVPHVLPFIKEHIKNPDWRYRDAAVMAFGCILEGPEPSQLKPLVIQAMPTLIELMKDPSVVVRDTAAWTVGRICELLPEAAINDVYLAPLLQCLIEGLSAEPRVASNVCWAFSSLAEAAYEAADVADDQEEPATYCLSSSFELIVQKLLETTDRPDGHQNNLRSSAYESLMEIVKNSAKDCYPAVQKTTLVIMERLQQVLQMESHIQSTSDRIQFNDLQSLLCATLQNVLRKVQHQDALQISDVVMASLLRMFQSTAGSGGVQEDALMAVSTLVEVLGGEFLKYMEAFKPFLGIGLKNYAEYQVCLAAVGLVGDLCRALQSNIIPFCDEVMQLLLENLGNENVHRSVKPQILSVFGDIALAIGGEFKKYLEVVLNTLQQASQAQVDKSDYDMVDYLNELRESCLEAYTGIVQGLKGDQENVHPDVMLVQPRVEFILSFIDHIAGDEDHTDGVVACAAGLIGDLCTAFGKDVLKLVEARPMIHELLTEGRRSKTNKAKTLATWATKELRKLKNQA
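FRET biosensor Rango (snurportin 1 IBB between N-terminal EYFP and C-terminal Cerulean), 50 nM in PBS/1 mM DTT/0.02% Tween-20/0.1% BSA, preincubated 5 min RT with compound; 0.125 microM importin beta added, 45 min RT, CFP/YFP FRET ratio read.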
miR-21 reporter = qHTS Assay for Modulators of miRNAs and/orActivators of miR-21; HeLa miR-21 FLuc reporter, luciferase, 48 h; Potency, µM (doses to about 38.3 µM), without a hit: at the top dose reporter change, positive = more light; 340,000 tested, under 10 active; active = well fitted rising curve with a large enough effect; inconclusive = small, poorly fitted or top-dose-only effect; inactive = no such curve, though single readings can be large or run the other way;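 further: % of control where 0% means no effect; miR-21 action dims this reporter so a rising signal means less miR-21 action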
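HeLa cells endogenously expressing miR-21, stably carrying CMV-driven firefly luciferase with a downstream miR-21 binding site, 2000 cells/well. Titrations up to approximately 40 uM, 48 hours; luciferase luminescence read.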
GLA inh pH 4.5 = qHTS Assay for Inhibitors of Human alpha-Galactosidase at pH 4.5 | Alpha-galactosidase A (Homo sapiens), P06280 | purified enzyme, 4-MU-alpha-Gal fluorescence, pH 4.5 | activity change, negative = inhibition, % at 105 µM | 230,000 tested, under 10 active; inconclusive = small, poorly fitted or top-dose-only inhibition, or a rising curve; inactive = flat fitted curve, though single readings scatter; no compound was filed as active;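 further: 0% = full activity with enzyme and -100% = basal without enzyme; dose as in the result columns while the protocol names 77 µM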
Rango dissoc inh = qHTS Assay for Inhibitors of RanGTP induced Rango (Ran-regulated importin-beta cargo) - Importin beta complex dissociation; Snurportin-1 (Homo sapiens) + GTP-binding nuclear protein Ran (Homo sapiens) + Importin …; Biochemical FRET Rango-importin beta, RanGTP-induced dissociation; Potency, µM (top dose mostly 46.1 µM), without a hit: top-dose activity change, negative = inhibition; 340,000 tested, 0.071% active; active means falling FRET ratio curve, often poorly fitted, with flat reads before Ran was added; inconclusive means other falling curves, or compound fluorescence or quenching; inactive means flat or rising ratio curve;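 further: potency means the concentration at half of the fitted maximal effect; % of control where 0% means no effect; nearly all actives have a fitted effect of over 45% in size; -100% = wells without RanGTP and RCC1; the record marks most hits as doubtful in a second field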
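Rango/importin beta premix (0.1/0.25 uM final), PBS + 1 mM DTT + 0.02% Tween-20 + 0.1% BSA; cpd 5 min RT; FRET pre-read; + RanGTP-RCC1 (0.6 uM Ran, 2 mM GTP, 0.2 uM RCC1); 45 min RT; FRET post-read, ex 430, em 486/530 nm.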
Numbers without * were called inactive; u = inconclusive; x = no result given.

SMILES | Rango-impB inh | miR-21 reporter | GLA inh pH 4.5 | Rango dissoc inh
CCn1ncc(CN2CCC(Oc3ccc(C(=O)N4CCCC4)cc3)CC2)c1C | 0.6% | -0.4% | x | 15.5%
Fc1ccccc1OCCSc1nc2ccccc2o1 | 6.8% | -44.9% | 1.3 | -8.8%
COc1cccc(/C=N/Nc2snc(SC)c2C#N)c1 | u | -25.3% | -8.8 | u
Cc1ccnn1CCC(=O)N1CCCC(Nc2ccc(F)c(F)c2)C1 (centres undefined) | -0.3% | 7.0% | x | -2.9%
COc1ccc(-c2noc(-c3ccccc3C(=O)NCC3CCCO3)n2)cc1 (centres undefined) | 5.3% | -4.8% | -4.5 | 3.0%
ClCC1=Nc2ccccc2Cc2ccccc21 | u | x | x | 1.1%
CCCCOc1ccc(S(=O)(=O)NNC(=O)C2Cc3c(ccc4ccccc34)O2)cc1 (centres undefined) | 0.6% | -4.5% | -3.5 | 4.4%
C[C@H](NC(=O)C1CCN(S(=O)(=O)c2ccccc2)CC1)C(=O)NCc1ccc(Cl)cc1Cl | 3.5% | 24.3% | x | 1.5%
Cc1cccc(NC(=O)CCN2C(=O)c3cccc([N+](=O)[O-])c3C2=O)c1 | 1.1% | -0.4% | x | 3.9%
COc1ccc(N(CC(=O)N2CCCCCC2)S(=O)(=O)c2ccc(OC)c(OC)c2)cc1 | -0.1% | -2.0% | x | u
CCOC(=O)c1cc2occc2n1CC(=O)Nc1ccc(OC)cc1OC | -3.0% | -7.8% | -5.9 | 3.6%
CN1C(=O)SC(Nc2ccccc2)C1=O (centres undefined) | 0.6% | 0.1% | 0.4 | 1.4%
COCCCN1C(=O)C(O)=C(C(C)=O)C1c1cccc(F)c1 (centres undefined) | 0.4% | -6.8% | -5.8 | -0.8%
COc1ccc(NC(=O)N(C2CCCCC2)C2CCN(C(C)C)CC2)c(OC)c1 | -0.2% | -7.4% | 2.5 | 1.7%
Cc1cc(C)cc(Cn2ncc(Cl)c(Cl)c2=O)c1 | -3.5% | u | -4.7 | -17.3%
O=C(c1cc2cc(Cl)ccc2oc1=O)N1CCN(c2ccccn2)CC1 | 2.3% | -0.5% | x | 12.4%
COc1ccc(C(=O)NCc2cc(C)nc3ccccc23)cc1 | -0.8% | 21.4% | 8.9 | 1.6%
COc1ccc(NCc2nn(CC(=O)c3ccc(Br)cc3)c3[n+]2CCCCC3)cc1 | -3.3% | -13.4% | 1.3 | 14.5%
FC(F)(F)c1cc(-c2ccco2)nc(NCc2ccccc2)n1 | -3.2% | -6.0% | -6.5 | -14.5%
O=S(=O)(c1ccc(=S)[nH]c1)N1CCCCCC1 | u | x | x | 23.5%
COc1cccc(/C=C2\SC(=S)N(CCC(=O)NNC(=O)c3ccccc3OC)C2=O)c1 | u | -1.8% | x | 0.1%
O=C(COC(=O)c1ccc(F)cc1F)Nc1ccc2[nH]c(=O)[nH]c2c1 | -1.5% | -0.6% | 1.6 | 0.8%
CCOC(=O)NC(=O)COC(=O)CCCc1nc2ccccc2s1 | u | -1.8% | 8.1 | 2.3%
C[N+](C)(CCCCCC[N+](C)(C)CCCN1C(=O)c2cccc3cccc(c23)C1=O)CCCN1C(=O)c2cccc3cccc(c23)C1=O | -0.3% | x | 1.0 | -4.9%
COc1ccc2oc(C(=O)Nc3cccc(S(=O)(=O)N4CCOCC4)c3)c(C)c2c1 | -2.8% | x | x | 15.7%
CCC(=O)Nc1cc(C)c(OC)c(C)c1 | 1.6% | -1.6% | -8.7 | 29.5%
CCc1cc2c3c(c(=O)oc2cc1OC(C)C(=O)O)CCCC3 (centres undefined) | 7.1% | -5.0% | x | 3.6%
Cc1ccc(C2=Nc3ccccc3N=C(c3ccco3)C2)c(O)c1 | 1.7% | -9.0% | 6.9 | -2.9%
COc1ccc(S(=O)(=O)N(CC(=O)N/N=C/c2ccccc2C(=O)O)c2ccccc2OC)cc1 | 4.9% | -0.6% | -1.9 | 29.2%
COc1ccc(C(=O)NNC(=O)c2cc(C)nc3ccccc23)cc1 | -1.3% | x | x | -4.0%
COc1cc(C2CC(=O)NC(SCC(=O)Nc3ccccc3C)=C2C#N)ccc1O (centres undefined) | 2.3% | -1.5% | 0.7 | 9.3%
Cc1ccc2nc(N3CCN(C)CC3)c(C=O)c(=O)n2c1 | -2.2% | 3.8% | x | -22.7%
Cc1ccc(-c2nc(N)sc2CC(=O)OCC(=O)N2C(C)CCCC2C)cc1 (centres undefined) | 0.2% | -7.2% | 2.3 | -1.3%
O=S(=O)(NC1=NCCCCC1)c1cc(F)ccc1F | -1.1% | x | x | 1.6%
COC(=O)c1sccc1NC(=O)C12CC3CC(CC(C3)C1)C2 | -3.3% | x | x | 26.5%
O=C(Nc1cccc(NC(=O)c2cccs2)c1)c1ccco1 | -3.0% | -3.6% | -6.0 | 1.5%
CCc1ccccc1NC(=O)CN1CCN(CC(=O)Nc2cc(C)ccc2OC)CC1 | 0.0% | 2.9% | x | 1.1%
CCN(Cc1cc2cccc(C)c2[nH]c1=O)C(=O)c1ccccc1OC | -1.3% | -4.5% | -17.4 | 1.0%
CN(C)c1ccc(C2/C(=C(/O)c3ccc(Br)cc3)C(=O)C(=O)N2C)cc1 (centres undefined) | -0.4% | -1.7% | x | 0.8%
Cc1ccc2sc(NC(=O)CSc3nc(C)cc(C)c3C#N)nc2c1 | u | -50.0% | 6.9 | u
COc1cc(/C=N/NC(=O)C(=O)N2CCCC2)ccc1O | -2.6% | 3.7% | 2.5 | 17.2%
CC(C)C[C@H]1CN=C(N(C)C)N1CCc1cccc(F)c1 | 2.4% | x | x | -5.7%
O=c1cc(N2CCN(Cc3ccccc3)CC2)[nH]c(=O)n1-c1cccc(C(F)(F)F)c1 | u | -5.5% | 5.2 | u
CCn1c(SCC(=O)Nc2ccc(NC(=O)c3ccco3)c(OC)c2)nc2ccccc2c1=O | 1.5% | -0.6% | 15.8 | -11.3%
Cc1nnc(C)n1/N=C/c1cccnc1 | -0.2% | -3.2% | 7.9 | -9.7%
O=C(CSc1nnc(CN2CCOCC2)n1-c1ccccc1)Nc1ccc(Cl)cc1 | 2.0% | 0.0% | -12.4 | 3.7%
COC(=O)c1c(C)oc(C)c1S(=O)(=O)N1CCCCC1 | 6.2% | -0.5% | -11.5 | -5.8%
COCCNC(=O)CN1N=C(c2ccc(OC)cc2)CCC1=O | 5.7% | 0.1% | x | 14.7%

Pulled by compound from the list above (two):
SMILES | Rango-impB inh | miR-21 reporter | GLA inh pH 4.5 | Rango dissoc inh
CCc1ccccc1NC(=O)CN1CCN(CC(=O)Nc2cc(C)ccc2OC)CC1 | 0.0% | 2.9% | x | 1.1%
CCOC(=O)c1cc2occc2n1CC(=O)Nc1ccc(OC)cc1OC | -3.0% | -7.8% | -5.9 | 3.6%

The results go on.
SMILES | Rango-impB inh | miR-21 reporter | GLA inh pH 4.5 | Rango dissoc inh
Cc1cccc(/C=N/NC(=O)C[n+]2ccccc2)c1 | -0.4% | x | x | -19.9%
CC(O)CCc1nc2ccc(C(=O)O)cc2[nH]1 (centres undefined) | 2.8% | -1.5% | 2.4 | 7.2%
Cc1cccc2cc(CN(Cc3cccs3)C(c3nnnn3C3CCCC3)C(C)C)c(=O)[nH]c12 (centres undefined) | -0.9% | 9.0% | -18.8 | -6.2%
Cc1nnc(-c2cccc(Br)c2)c2cn(-c3ccccc3Cl)nc12 | 1.3% | -8.8% | -2.5 | 0.0%

Molecules from the list above with fluorine:
SMILES | Rango-impB inh | miR-21 reporter | GLA inh pH 4.5 | Rango dissoc inh
Fc1ccccc1OCCSc1nc2ccccc2o1 | 6.8% | -44.9% | 1.3 | -8.8%
Cc1ccnn1CCC(=O)N1CCCC(Nc2ccc(F)c(F)c2)C1 (centres undefined) | -0.3% | 7.0% | x | -2.9%
COCCCN1C(=O)C(O)=C(C(C)=O)C1c1cccc(F)c1 (centres undefined) | 0.4% | -6.8% | -5.8 | -0.8%
FC(F)(F)c1cc(-c2ccco2)nc(NCc2ccccc2)n1 | -3.2% | -6.0% | -6.5 | -14.5%
O=C(COC(=O)c1ccc(F)cc1F)Nc1ccc2[nH]c(=O)[nH]c2c1 | -1.5% | -0.6% | 1.6 | 0.8%
O=S(=O)(NC1=NCCCCC1)c1cc(F)ccc1F | -1.1% | x | x | 1.6%
CC(C)C[C@H]1CN=C(N(C)C)N1CCc1cccc(F)c1 | 2.4% | x | x | -5.7%
O=c1cc(N2CCN(Cc3ccccc3)CC2)[nH]c(=O)n1-c1cccc(C(F)(F)F)c1 | u | -5.5% | 5.2 | u

The list is partial; the hit share may differ from the screen's.
